Assay outcomes as filed in PubChem BioAssay.
eIF4H inh: inhibitors of RNA binding by human eIF4H | inhibition, % at 35 µM | Q15056 | eIF4H fluorescence polarization binding assay | AID 2012 | actives 0.94% (n = 290,000);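 active means 50% or more with normal probe brightness, or confirmed in later tests; about a fifth of its hits are not listed in these tables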;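 further: calls also rest on retests at 20 µM and on dose response follow-up; 0% = protein and probe with vehicle and 100% = probe without protein; strong numbers were not always called active; many hits fall short of the cut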
CSC inhib: blocks cancer stem cells; inhibition, % at 7.5 µM; cancer stem cell-like cells viability, luminescence; AID 2717; actives 1.1% (n = 300,000);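 active means mean at 75% or more and at least half the replicates too; tested in HMLE shEcad cells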;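 further: 0% = median of negative and 100% = median of positive control wells; the first replicate is given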
Rce1 inh: blocks yeast Ras-converting enzyme. actives 0.27% (n = 290,000). yeast membranes, quenched prenylated peptide cleavage fluorescence. calls only. Q03530;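 active means fall in fluorescence gain of 50% or more versus controls, with final raw signal at or below 3038400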;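 further: plate controls were neutral control wells for no effect and wells lacking membranes for full effect; tested at 10 µM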
Target sequence (Q03530 whole entry, looked up): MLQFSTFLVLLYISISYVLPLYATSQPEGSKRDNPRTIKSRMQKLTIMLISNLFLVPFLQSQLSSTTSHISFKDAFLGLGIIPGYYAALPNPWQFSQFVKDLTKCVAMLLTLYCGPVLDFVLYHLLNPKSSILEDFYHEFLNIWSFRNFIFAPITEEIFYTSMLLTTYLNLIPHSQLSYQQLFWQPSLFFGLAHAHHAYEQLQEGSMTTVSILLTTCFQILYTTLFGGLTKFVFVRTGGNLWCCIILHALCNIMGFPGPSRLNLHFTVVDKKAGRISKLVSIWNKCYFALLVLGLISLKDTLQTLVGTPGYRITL
Env fusion inh: HIV envelope-mediated fusion inhibition. HeLa-JRFL Env/CEM21 cell fusion, luciferase. actives 1.1% (n = 360,000). inhibition, % at 12.3 µM. AID 651610;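 active means mean replicate inhibition score of at least 50 and every replicate individually at or above 50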;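 further: 0% = plate neutral controls and 100% = maraviroc near 300 nM; one replicate is shown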
Yeast UUG start: modulators of start codon recognition fidelity in yeast | S. cerevisiae UUG-firefly luciferase reporter, luminescence/redox ratio | activity score, % at 18.7 µM | actives 0.13% (n = 350,000) | AID 602363;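 active means replicate mean at a twofold rise or more, about +100% in these data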;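 further: firefly luciferase made from a UUG start codon reports start codon fidelity; reporter light over untreated wells divided by growth signal over untreated wells; some hits fall short of that in this replicate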
PABP FP inh: PABP-poly(A) binding inhibition. PABP-poly(A) RNA binding, fluorescence polarization. P11940. actives 1% (n = 290,000). inhibition, % at 35 µM. AID 2014;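 active means 50% or more with normal probe brightness, or confirmed in later tests; about a fifth of its hits are not listed in these tables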;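 further: calls also rest on retests at 20 µM and on dose response follow-up; controls were probe without protein and protein plus probe with vehicle; some compounds called inactive have numbers as strong as hits; many hits fall short of the cut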
Target sequence (P11940 whole entry, looked up): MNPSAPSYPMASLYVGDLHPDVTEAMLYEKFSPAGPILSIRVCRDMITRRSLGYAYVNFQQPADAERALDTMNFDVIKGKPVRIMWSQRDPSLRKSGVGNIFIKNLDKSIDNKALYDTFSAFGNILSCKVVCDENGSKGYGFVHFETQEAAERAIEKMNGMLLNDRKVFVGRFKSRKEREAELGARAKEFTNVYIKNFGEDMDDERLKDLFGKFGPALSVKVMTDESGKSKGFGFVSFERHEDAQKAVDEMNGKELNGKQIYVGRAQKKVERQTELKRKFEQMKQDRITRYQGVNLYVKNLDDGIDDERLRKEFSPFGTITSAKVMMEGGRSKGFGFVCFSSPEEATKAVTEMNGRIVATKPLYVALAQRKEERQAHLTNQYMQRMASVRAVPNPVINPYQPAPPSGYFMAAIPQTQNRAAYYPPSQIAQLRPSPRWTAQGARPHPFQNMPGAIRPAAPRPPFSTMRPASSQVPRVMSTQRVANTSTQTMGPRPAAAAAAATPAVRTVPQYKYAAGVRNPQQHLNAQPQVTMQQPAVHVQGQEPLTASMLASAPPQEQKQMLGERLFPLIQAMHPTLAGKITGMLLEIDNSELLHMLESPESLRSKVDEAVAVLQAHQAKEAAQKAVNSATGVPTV
MT1-MMP act inh: blocks activation of human MT1-MMP; HT1080 RFP-PRO-GFP cells, GFP/RFP ratio fluorescence, overnight; percent of plate control window, DMSO zero; GFP/RFP ratio change, % at 20 µM; actives 0.061% (n = 360,000);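 active means GFP/RFP ratio change of at least 30% with cell ATP level not reduced by more than half and red fluorescence within 50% of control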; further: strong numbers were not always called active
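Assay system: RFP-PRO-GFP reporter HT1080 cells; read-out basis: GFP/RFP fluorescence ratio; benchmarks: DMSO wells and RFP-L50D-GFP cells; doses: 20 µM single dose, 1% DMSO; schedule: overnight cell settling, then overnight compound exposure, 37 °C, 5% CO2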
MT1-MMP act inh RFP: also measured in MT1-MMP act inh; calls as there; RFP signal change, %; measured here: RFP expression control read;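 0 = vehicle wells; hits needed this value within 50% of zero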
* marks the source's active call; other numbers are inactive results.

`CCCCC(O)(CCCC)C(=O)N/N=C(\C)c1ccc(Cl)cc1` gave eIF4H inh 84*, CSC inhib -3, Rce1 inh inactive, Env fusion inh 8, Yeast UUG start -12, PABP FP inh 52*, MT1-MMP act inh 3 and MT1-MMP act inh RFP 0.
Screening O=C(CCCC(=O)c1ccccc1)Nc1ccc(O)cc1 returned eIF4H inh -9, CSC inhib 17, Rce1 inh inactive, Env fusion inh 31, Yeast UUG start -16, PABP FP inh -2, MT1-MMP act inh -8 and MT1-MMP act inh RFP 1.
Screening CCN(C(=O)c1coc(=O)c2ccccc12)c1cc(OC)ccc1OC returned eIF4H inh -10, CSC inhib -2, Rce1 inh inactive, Env fusion inh -26, Yeast UUG start -7, PABP FP inh -3, MT1-MMP act inh 0 and MT1-MMP act inh RFP 2.
For CCc1nn(CC(=O)NCCc2ccc(Cl)cc2)c(=O)c2cccn12 the results were eIF4H inh -5, CSC inhib 18, Rce1 inh inactive, Env fusion inh -1, Yeast UUG start -8, PABP FP inh 2, MT1-MMP act inh -1 and MT1-MMP act inh RFP 1.
Screening COc1ccc(CNC(=O)CSc2nc3cccnc3s2)cc1 returned eIF4H inh -10, CSC inhib -4, Rce1 inh inactive, Env fusion inh -8, Yeast UUG start 4, PABP FP inh -1, MT1-MMP act inh -5 and MT1-MMP act inh RFP -2.
For COc1cc(/C=N/NC(=S)NCc2ccco2)cc(OC)c1OC the results were eIF4H inh 6, CSC inhib -21, Rce1 inh inactive, Env fusion inh -9, PABP FP inh -4, MT1-MMP act inh 5 and MT1-MMP act inh RFP 5.
For COc1ccc(C)cc1NC(=O)CN1C(=O)COc2ccc(S(=O)(=O)N3CCCCC3)cc21 the results were CSC inhib -2, Rce1 inh inactive, Env fusion inh 2, Yeast UUG start -8, MT1-MMP act inh 1 and MT1-MMP act inh RFP -1.
`Cc1cc(C)n(CC(=O)n2c(C)c(C)c3ccccc32)n1` gave eIF4H inh 0, CSC inhib -5, Rce1 inh inactive, Yeast UUG start -19, PABP FP inh -6, MT1-MMP act inh 3 and MT1-MMP act inh RFP 0.
Screening O=C(c1cccc(C(=O)N(c2ccccn2)C2CCCCC2)c1)N(c1ccccn1)C1CCCCC1 returned eIF4H inh 3, CSC inhib 2, Rce1 inh inactive, Env fusion inh 7, Yeast UUG start 7, PABP FP inh -6, MT1-MMP act inh -7 and MT1-MMP act inh RFP -8.
Screening COc1cccc(NC(=O)CN(C)C(=O)C23CC4CC(CC(Cl)(C4)C2)C3)c1 returned Env fusion inh 2, Yeast UUG start -30, MT1-MMP act inh 3 and MT1-MMP act inh RFP 4.
Screening CCOC(=O)C(NC(=O)c1ccc(OC)cc1)(N1CCCC1=O)C(F)(F)F (stereo unspecified) returned eIF4H inh 3, CSC inhib -26, Rce1 inh inactive, Env fusion inh -4, PABP FP inh 19, MT1-MMP act inh -1 and MT1-MMP act inh RFP 3.
`CCCCn1c(N)c(N(CC)C(=O)CCNC(=O)NC23CC4CC(CC(C4)C2)C3)c(=O)[nH]c1=O` gave eIF4H inh 0, CSC inhib -7, Rce1 inh inactive, Env fusion inh 0, Yeast UUG start 11, PABP FP inh 14, MT1-MMP act inh -6 and MT1-MMP act inh RFP -1.
Screening Fc1ccc(CSc2ncnc3scc(-c4ccccc4)c23)cc1 returned eIF4H inh -7, CSC inhib 26, Rce1 inh inactive, Env fusion inh 20, Yeast UUG start -5, PABP FP inh -3, MT1-MMP act inh -9 and MT1-MMP act inh RFP -1.
Cc1csc(NC(=O)c2cncc(Br)c2)n1 was read as eIF4H inh -4, CSC inhib -11, Rce1 inh inactive, Env fusion inh -8, PABP FP inh 4, MT1-MMP act inh -2 and MT1-MMP act inh RFP -4.
For O=C(Cc1ccccc1)NNc1ccc2ccccc2c1 the results were eIF4H inh -2, CSC inhib 88*, Rce1 inh inactive, Env fusion inh 15, PABP FP inh -3, MT1-MMP act inh -2 and MT1-MMP act inh RFP -2.
O=C(OCc1nc2ccsc2c(=O)[nH]1)c1cc(Br)c(Br)s1 was read as CSC inhib 2, Rce1 inh inactive, Env fusion inh 25, Yeast UUG start -4, MT1-MMP act inh 0 and MT1-MMP act inh RFP 3.
Screening CSc1nnc(N2C(=O)C(O)=C(C(=O)c3ccc(C)o3)C2c2ccc(C)cc2)s1 (stereo unspecified) returned eIF4H inh 20, CSC inhib -4, Rce1 inh inactive, Env fusion inh -10, Yeast UUG start -31, PABP FP inh 22, MT1-MMP act inh -46 and MT1-MMP act inh RFP 4.
For Cc1cccc(-c2noc(CCc3ccccc3)n2)c1 the results were eIF4H inh -5, CSC inhib 0, Rce1 inh inactive, Env fusion inh -93, Yeast UUG start -16, PABP FP inh 3, MT1-MMP act inh 1 and MT1-MMP act inh RFP 4.
Screening Cn1c(SCC(=O)N2c3ccccc3Sc3ccccc32)nc2ccccc21 returned eIF4H inh -8, CSC inhib -14, Rce1 inh inactive, Env fusion inh -30, PABP FP inh 2, MT1-MMP act inh 0 and MT1-MMP act inh RFP -1.
Screening NC(=O)CC(NC(=O)c1cccc(Br)c1)c1ccc(NC2CCN(Cc3ccccc3)CC2)c([N+](=O)[O-])c1 (stereo unspecified) returned eIF4H inh 2, CSC inhib -3, Rce1 inh inactive, Env fusion inh -13, Yeast UUG start -12, PABP FP inh -5, MT1-MMP act inh 4 and MT1-MMP act inh RFP 1.
Cc1cc(-c2ccccc2C(=O)NCc2ccccc2)on1 was read as eIF4H inh -1, CSC inhib -18, Rce1 inh inactive, Yeast UUG start 16, PABP FP inh -4, MT1-MMP act inh 3 and MT1-MMP act inh RFP 5.
Screening COc1ccc(/C=C/C(=O)N(CC(C)C)CC(C)C)cc1Br returned eIF4H inh -6, CSC inhib 40, Rce1 inh inactive, Yeast UUG start -4, PABP FP inh -15, MT1-MMP act inh -7 and MT1-MMP act inh RFP -5.
For O=C(Nc1ccccc1)c1snc2c(=O)[nH]cnc12 the results were eIF4H inh -1, Rce1 inh inactive, Env fusion inh 24, PABP FP inh -2, MT1-MMP act inh 1 and MT1-MMP act inh RFP 0.
`COc1ccccc1CNC(=O)C(C)n1nc(C)n2c(cc3occc32)c1=O` (stereo unspecified) gave eIF4H inh 4, CSC inhib -14, Rce1 inh inactive, Env fusion inh 0, Yeast UUG start -12, PABP FP inh 11, MT1-MMP act inh 2 and MT1-MMP act inh RFP 3.
`COc1ccc(N(C(=O)c2csnn2)C(C(=O)NC2CCCC2)c2ccccc2)cc1` (stereo unspecified) gave eIF4H inh 2, CSC inhib -3, Rce1 inh inactive, Env fusion inh 12, Yeast UUG start -5, PABP FP inh 5, MT1-MMP act inh 0 and MT1-MMP act inh RFP 4.
`CCOC(=O)c1c(N)sc(C(=O)N(C)C)c1CN1CCOCC1` gave eIF4H inh -7, CSC inhib -7, Rce1 inh inactive, Yeast UUG start 1, PABP FP inh -3, MT1-MMP act inh 10 and MT1-MMP act inh RFP -1.
`CCNC(=O)CC1SC(=Nc2ccccc2C)N(C)C1=O` (stereo unspecified) gave eIF4H inh -8, CSC inhib -19, Rce1 inh inactive, Env fusion inh -52, Yeast UUG start -23, PABP FP inh -19, MT1-MMP act inh 9 and MT1-MMP act inh RFP 7.
COc1ccccc1N1CCN(C(=O)C(OC(C)=O)c2ccccc2)CC1 (stereo unspecified) was read as eIF4H inh -8, CSC inhib -10, Rce1 inh inactive, Env fusion inh -36, Yeast UUG start 1, PABP FP inh 8, MT1-MMP act inh 2 and MT1-MMP act inh RFP 8.
Screening COc1ccc2oc(C(=O)OCC(=O)N3CCCC3=O)c(C)c2c1 returned Rce1 inh inactive, Env fusion inh 1, Yeast UUG start -21, MT1-MMP act inh 3 and MT1-MMP act inh RFP 2.
Screening CCOC(=O)CSc1ccc(-c2nc3ccccc3[nH]2)cn1 returned eIF4H inh -5, Rce1 inh inactive, Env fusion inh -6, Yeast UUG start -14, PABP FP inh -5, MT1-MMP act inh -7 and MT1-MMP act inh RFP -6.
Screening CCN(CC)C(=O)Oc1ccc2c(=O)c(-c3ccc(OC)cc3)coc2c1 returned eIF4H inh -9, CSC inhib 14, Rce1 inh inactive, Yeast UUG start 0, PABP FP inh 4, MT1-MMP act inh -3 and MT1-MMP act inh RFP -17.
CCOC(=O)/C(=C/c1ccc(OC)cc1)NC(=O)c1ccco1 was read as eIF4H inh -6, CSC inhib -1, Rce1 inh inactive, Env fusion inh 11, PABP FP inh 26, MT1-MMP act inh 2 and MT1-MMP act inh RFP 4.
O=C(O)CSC1CC(=O)N(c2ccc(F)cc2)C1=O (stereo unspecified) was read as Env fusion inh -8, Yeast UUG start -19, MT1-MMP act inh 0 and MT1-MMP act inh RFP 2.
`COc1ccc(N2CC(C(=O)Nc3nnc(SCc4ccccn4)s3)CC2=O)cc1` (stereo unspecified) gave eIF4H inh 3, CSC inhib 30, Rce1 inh inactive, Env fusion inh -7, Yeast UUG start -15, PABP FP inh 13, MT1-MMP act inh 12 and MT1-MMP act inh RFP 45.
For Cc1ccccc1OCC(=O)N1CCCc2ccccc21 the results were eIF4H inh 3, CSC inhib -13, Rce1 inh inactive, Env fusion inh -3, PABP FP inh -7, MT1-MMP act inh 0 and MT1-MMP act inh RFP -1.
Screening COc1ccc(NC(=O)CCCC2CCCCC2)c(OC)c1 returned eIF4H inh 2, CSC inhib -13, Rce1 inh inactive, Env fusion inh -1, Yeast UUG start -17, PABP FP inh 9, MT1-MMP act inh 3 and MT1-MMP act inh RFP -1.

Next section (2 carried over from the part before).
For Cc1ccccc1OCC(=O)N1CCCc2ccccc21 the results were eIF4H inh 3, CSC inhib -13, Rce1 inh inactive, Env fusion inh -3, PABP FP inh -7, MT1-MMP act inh 0 and MT1-MMP act inh RFP -1.
Screening COc1ccc(NC(=O)CCCC2CCCCC2)c(OC)c1 returned eIF4H inh 2, CSC inhib -13, Rce1 inh inactive, Env fusion inh -1, Yeast UUG start -17, PABP FP inh 9, MT1-MMP act inh 3 and MT1-MMP act inh RFP -1.
CC(OCCN1CCCC1)(c1ccc(F)cc1)c1ccc(F)cc1 was read as eIF4H inh 3, CSC inhib 29, Rce1 inh inactive, Env fusion inh 4, PABP FP inh -3, MT1-MMP act inh -5 and MT1-MMP act inh RFP -3.
`O=C(O)COCC(=O)Nc1ccc2c(c1)ncn2CCc1ccccc1` gave eIF4H inh -6, CSC inhib -2, Rce1 inh inactive, Env fusion inh -1, Yeast UUG start -13, PABP FP inh -9, MT1-MMP act inh -1 and MT1-MMP act inh RFP 1.
Screening COc1ccc(OCCN2C(=O)c3ccccc3C2=O)c([N+](=O)[O-])c1 returned eIF4H inh -5, CSC inhib 7, Rce1 inh inactive, Env fusion inh -10, Yeast UUG start -12, PABP FP inh 2, MT1-MMP act inh 1 and MT1-MMP act inh RFP 0.
`COc1ccc(NC(=O)c2ccccc2NC(=O)c2ccccc2C(=O)O)c(OC)c1` gave eIF4H inh -18, CSC inhib -10, Rce1 inh inactive, Env fusion inh -31, Yeast UUG start -19, PABP FP inh 5, MT1-MMP act inh -3 and MT1-MMP act inh RFP 0.
Cc1cc(C)n(/N=C/c2ccc(O)cc2)c(=O)c1C#N was read as eIF4H inh -12, CSC inhib -10, Rce1 inh inactive, Env fusion inh -23, Yeast UUG start -5, PABP FP inh 1, MT1-MMP act inh 2 and MT1-MMP act inh RFP 5.
Screening CCN1CCN(c2ccc(S(=O)(=O)N3CCOCC3)cc2NC(=O)c2cc(F)c(F)c(F)c2F)CC1 returned Env fusion inh -8, Yeast UUG start 7, MT1-MMP act inh 4 and MT1-MMP act inh RFP 8.
COc1ccccc1C(=O)N1CCN(c2cccc(C(F)(F)F)c2)CC1 was read as eIF4H inh -11, CSC inhib 61, Rce1 inh inactive, Yeast UUG start 11, PABP FP inh -10, MT1-MMP act inh -8 and MT1-MMP act inh RFP -15.

No enrichment for hits, and some 2.9% of all compounds hit somewhere here.
